High-throughput results from PubChem BioAssay.
PINK1 expr mod – changes PINK1 expression. AID 624263. Potency, µM (top dose mostly 76.6 µM), without a hit: at the top dose activation (PINK1 increase), actives largely listed as activators. PINK1 immunofluorescence, high-content cytometry, 24 h. 410,000 compounds, 0.2% hits; active = well fitted activation curve with a large enough effect; inconclusive = small, poorly fitted or top-dose-only effect; inactive = flat fitted curve, though single readings scatter; cell line not stated here;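 note: potency is the fitted concentration of half-maximal effect; % of control where 0% means no effect; nearly all actives have a fitted effect of over 65% in size; a mitochondrial uncoupler was the plate control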
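PINK1 protein level read as immunofluorescence by microplate cytometer in a fixed, stained stable cell line after 24 h exposure to five compound concentrations, with CCCP as control.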
TRPV1 potentiator – human TRPV1 potentiation; potentiation, % at 8.33 µM; TRPV1-expressing cells, Fluo-8 calcium influx, capsaicin EC20 potentiation; host cell line not named in the record; control for the full effect not named in the record; AID 540277; 320,000 compounds, 0.02% hits; active means potentiation above 80%; inconclusive means 30% to 80%; inactive means below 30%; note: 0% is about no effect
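TRPV1-expressing cells were cultured overnight at 35.5C and loaded with Fluo-8 calcium dye for 40 to 90 min at room temperature. After a 10 s baseline, compound was added and calcium influx was read kinetically for 3 min (ex 480/em 520 nm).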
TRPML1 blocker – blocks the human TRPML1 channel; Q9GZU1; TRPML1-inducible cells, Ca2+ dye fluorescence, FDSS; hits give low values; inhibition of EC80 agonist-evoked calcium signal; activity change, negative = inhibition, % (concentration not given with the values); 390,000 compounds, 0.02% hits; in the data active means activity change below about -50%; inconclusive means about -30% to -50%; inactive means above about -30%;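 note: stimulus is agonist 54-4 at its EC80 concentration; % is set by controls: 0 for no effect and ±100 for the full control effect; the text of the record puts the active cut at -80%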
Target sequence (Q9GZU1 whole entry, looked up): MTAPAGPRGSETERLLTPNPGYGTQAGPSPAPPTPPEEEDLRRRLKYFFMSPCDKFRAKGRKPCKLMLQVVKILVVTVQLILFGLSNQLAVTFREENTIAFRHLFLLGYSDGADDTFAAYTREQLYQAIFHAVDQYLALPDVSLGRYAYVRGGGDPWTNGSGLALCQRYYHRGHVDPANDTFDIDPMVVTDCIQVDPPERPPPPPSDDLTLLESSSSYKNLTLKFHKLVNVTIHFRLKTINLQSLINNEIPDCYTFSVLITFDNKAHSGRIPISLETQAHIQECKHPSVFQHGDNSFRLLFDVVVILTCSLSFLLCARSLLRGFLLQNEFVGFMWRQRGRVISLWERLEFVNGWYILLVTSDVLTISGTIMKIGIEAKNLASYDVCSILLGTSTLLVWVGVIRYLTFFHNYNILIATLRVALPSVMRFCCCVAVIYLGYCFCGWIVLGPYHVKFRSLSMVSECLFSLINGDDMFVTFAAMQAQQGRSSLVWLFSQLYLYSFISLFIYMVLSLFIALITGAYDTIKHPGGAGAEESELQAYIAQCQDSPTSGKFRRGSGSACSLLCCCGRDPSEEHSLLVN
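Calcium fluorescence in TRPML1-DL cells induced overnight with Tet: a 110 s read after compound pin addition, then a 110 s antagonist read after challenge with 54-4 at 4 uM final (EC80).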
ClpP mod – qHTS Assay for Activators of ClpP. AID 651965, 2013. purified B. subtilis ClpP, FRET peptide cleavage, 20 min. ATP-dependent Clp protease proteolytic subunit (Bacillus subtilis (strain 168)), P80244. Potency, µM (highest dose often 57.5 µM), for the others: at the top dose activity change, negative = active. 340,000 compounds, 1.9% hits; active = well fitted falling curve with a large enough effect; inconclusive = small, poorly fitted or top-dose-only effect; inactive = no such curve, though single readings can be large or run the other way; note: potency is the fitted concentration of half-maximal effect; the source files actives as falling curves though it sought activators and does not explain the sign; nearly all actives have a fitted effect of over 65% in size; many hits overshoot -100%
Target sequence (P80244 whole entry, looked up): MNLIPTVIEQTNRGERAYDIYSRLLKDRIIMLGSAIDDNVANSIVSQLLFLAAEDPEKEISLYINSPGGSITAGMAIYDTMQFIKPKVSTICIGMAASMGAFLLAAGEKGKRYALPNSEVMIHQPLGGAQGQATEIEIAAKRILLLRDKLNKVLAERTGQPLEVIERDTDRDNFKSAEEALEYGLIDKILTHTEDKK
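ClpP 10 microg/mL final, pH 8 Tris/KCl buffer with BSA, glycerol, Tween-20; compound pinned in; FRET-FV substrate; RT 20 min; Ex320/Em430; ΔFRET vs ADEP 5.8 microM, DMSO, no enzyme.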
TRPML1 agonist – activates the human TRPML1 channel; Q9GZU1; TRPML1-expressing cells, Ca2+ dye fluorescence, FDSS; host cell line not named in the record; reference of the full effect not given here; activation, % (no concentration beside the values); 410,000 compounds, 0.12% hits; in the data active = activation above about 50%; inconclusive = about 30% to 50%; inactive = below about 30%; note: 0% is about no effect; the text of the record puts the active cut at 80%
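Tet-induced TRPML1-DL cells, 1,500 per well, cultured overnight, were loaded with a no-wash Ca2+ dye for 45–90 min. Calcium fluorescence was recorded on the FDSS for 110 s after compound addition, before the EC80 agonist (4 uM 54-4) was added.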
Menin MLL FP FL – displaces fluorescein MLL peptide from human menin | AID 1766 | 290,000 tested, under 10 active | Fluorescence polarization, fluorescein-MLL peptide displacement from menin | FP activity change, % at 61.4 µM; inconclusive = falling polarisation curve, or a change in total fluorescence; inactive = total fluorescence flat and polarisation flat or rising; no compound was filed as active; the % refers to the polarisation; negative = inhibition;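 note: % of control where 0% means no effect; inhibitors lower the polarisation; unlabelled MLL peptide was the positive control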
Sfp PPTase inh – inhibitors of Bacillus subtilis Sfp phosphopantetheinyl transferase. Biochemical Sfp PPTase activity, qHTS. Q9F4F7. Potency, µM, for the others: max response, negative = inhibition, most hits filed as inhibitors. AID 1490. 310,000 compounds, 3.5% hits; active = well fitted inhibition curve with a large enough effect; inconclusive = small, poorly fitted or top-dose-only effect, or another doubt; inactive = no such curve, though single readings can be large or run the other way;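 note: the enzyme is Sfp with the accession as filed and its product quenches rhodamine fluorescence; potency is the fitted concentration of half-maximal effect; 0% = enzyme reaction without inhibitor and -100% = no enzyme wells; top concentration of the series not given in the record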
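Fluorescence-quenching assay with 15 nM Sfp, 5 uM rhodamine-CoA and 12.5 uM BHQ-2-labelled ybbR peptide in pH 7.6 Hepes/MgCl2 buffer. Enzyme was pre-incubated with compound for 15 min at room temperature. Rate was taken from the 30-min fluorescence change (525/598 nm).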
* hit, by the source's call; ? = inconclusive; . = no result given; [ ] = remark or other dose.

SMILES	PINK1 expr mod	TRPV1 potentiator	TRPML1 blocker	ClpP mod	TRPML1 agonist	Menin MLL FP FL	Sfp PPTase inh
O=C(NCc1ccc2c(c1)OCO2)c1cc(-c2ccccc2)nn1CC1CC(c2cccnc2)=NO1 (configuration not stated)	-0.5%	.	2	0.4%	0.3	.	.
Cc1ccc(C(=O)Nc2nc(-c3ccccc3)c(-c3ccccc3)o2)cc1	5.4%	-7	-12	.	3.4	-3.6	21%
Cc1ccc(NC(=O)Cc2coc3c(C)c(C)ccc23)cc1Cl	3.6%	.	6	-0.4%	1.3	.	.
CCCN(CCC)S(=O)(=O)c1ccc(NC(=O)c2cc(C(=O)OC)cc([N+](=O)[O-])c2)cc1	-0.2%	-1	-6	-2.2%	0.1	1.0	7%
CCCN1C=CC(=C/C=C(\C#N)C(=O)OCC)C=C1	.	-12	.	.	.	?	-1%
O=C1CSC(c2ccccn2)N1c1ccccc1 (configuration not stated)	-1.7%[38.3 µM]	2	0	-0.2%	-0.4	-0.4	13%
COCCNC(=S)N1CCN(c2nc(-c3ccc(Cl)cc3)cs2)CC1	0.6%	7	12	.	0.5	5.1	7%
CCOC(=O)N1CCN(C2=C(NS(=O)(=O)c3ccccc3)C(=O)c3ccccc3C2=O)CC1	-0.1%	-9	-9	1.2%	-1.4	.	-6%
CCCCN(CC)CCCNC(=O)C1CCN(c2ncnc3c2sc2cccc(F)c23)CC1	3.5%	-10	49	-4.1%	-0.8	-0.1	11%
O=C(C1=C(O)C(=O)N(CCc2ccccc2)C1c1cccnc1)c1ccco1 (configuration not stated)	-0.7%	-6	-20	0.8%	0.2	5.6	-5%
COc1ccccc1OCCNC(=O)C1CCN(C(C)=O)CC1	1.0%	-15	14	.	0.8	1.1	15%
CCOc1ccc(NC(=O)CN(C)C(=O)CN2C(=O)C3CCCCC3C2=O)cc1OCC (configuration not stated)	1.1%	-6	33	3.1%	-1.8	.	.
CCC(=O)c1ccc(OCC(O)CNCc2ccc(F)cc2)cc1 (configuration not stated)	0.2%	-5	5	-0.4%	-0.1	1.5	20%
S=C(NCC1CCCCC1)Nc1cccnc1	0.9%	-1	-7	?	-0.2	9.0	11%
O=C(Nc1cccc(C(=O)NC2CCCCC2)c1)c1ccccc1	2.1%	?	6	.	-0.3	-2.9	10%
Fc1cccc(Cc2c(C3CCCCC3)nc3c4ccccc4ccn23)c1	1.9%	.	.	4.7%	-0.1	.	.
O=C(NCCCCNC(=O)c1cccnc1)c1cccnc1	0.7%	16	23	0.3%	-0.5	3.2	19%
COc1cccc(N(CC(=O)NCC2CCCO2)C(=O)CCC(=O)Nc2nccs2)c1 (configuration not stated)	-1.4%	10	38	.	0.0	-1.0	20%
COc1ccccc1NS(=O)(=O)c1ccc(C(=O)N2CCN(c3ccccn3)CC2)cc1	2.6%	.	28	-0.8%	0.3	.	.
Cc1ccc(S(=O)(=O)/N=C(/Nc2nc(C)cc(C)n2)N2CCOCC2)cc1	.	-1	-10	-25%	-0.2	3.0	-8%
Cn1c(=O)c2cc(NC(=O)NCc3ccc(F)cc3)ccc2n1C/C=C/c1ccccc1	13%	.	.	4.4%	-1.0	.	.
COc1ccc(-c2ccc(-c3noc(C(C)C)n3)c(OC)n2)cc1	5.9%	-13	-1	56%	1.2	-0.3	56µM*
COc1ccc2c(c1)c(C(C)=O)c(C)n2CCc1ccccc1	-2.2%	7	14	-4.8%	2.4	-2.2	-9%
CC(=O)Nc1c2c(nn1-c1ccc(C)cc1)CSC2	0.9%	-12	-2	-3.5%	-0.6	.	17%
COC(=O)c1c(NC(=O)Cc2ccccc2)sc2c1CC(C)(C)NC2(C)C	4.6%	7	-3	-7.4%	-0.1	0.0	28µM*

Continuation.
SMILES	PINK1 expr mod	TRPV1 potentiator	TRPML1 blocker	ClpP mod	TRPML1 agonist	Menin MLL FP FL	Sfp PPTase inh
CN1OC[C@@H]2CN(C(=O)Cc3ccccc3)[C@H](c3ccccc3Br)C[C@@H]21	0.9%	.	0	-1.8%	-0.2	.	.
CCOc1ccc(-n2c(SCC(=O)N3CCCCC3)nc3c([nH]c4ccccc43)c2=O)cc1	-4.8%	.	12	-3.1%	0.6	.	.
O=C(CCCc1nc2ccccc2s1)N1CCN(c2ccccc2F)CC1	-0.8%	-12	15	-0.8%	6.5	3.6	-4%
CCOc1ccccc1N1CC(c2nc3ccccc3n2CCOc2ccccc2)CC1=O (configuration not stated)	2.5%	.	19	-27%	0.0	.	.
CCCNS(=O)(=O)c1ccc(OCC(=O)NCc2ccco2)cc1	-0.4%[38.3 µM]	0	15	-0.7%	-0.7	5.9	0%
Clc1ccc(-c2nnc(-c3ccccc3)o2)cn1	1.9%	12	2	-0.7%	-1.4	7.3	8%
CCCc1nc(NCc2ccco2)c(C#N)c2c1COC(C)(C)C2	8.3%	25	-13	?	0.1	1.9	3%
CSc1nnnn1-c1ccc(C)c(Cl)c1	-2.1%	8	-3	-1.2%	-0.5	5.8	-1%
Cc1c(Cl)cccc1NC(=O)Cn1nnc(C(=O)NCc2cccs2)c1N	1.9%	24	13	.	0.4	8.2	-8%
C=CCSc1nc2c(c(=O)[nH]1)C(C(C)C)C(C#N)=C(N)O2 (configuration not stated)	1.9%	-6	-7	-1.0%	0.4	1.8	-10%
Cc1n[nH]c(=O)nc1N/N=C/c1cccs1	-2.3%	-4	3	.	-0.1	-1.1	4%
Cc1cc2c(SCC(=O)NCC3CCCO3)ncnc2s1 (configuration not stated)	-0.4%	9	3	.	-0.5	-1.8	3%
COc1ccc(N2CC(C(=O)NCCc3ccc(OC)c(OC)c3)CC2=O)cc1 (configuration not stated)	.	13	-1	0.6%	-0.5	5.8	18%
COc1ccc(S(=O)(=O)NCCc2nnc3ccc(SCC(=O)Nc4ccc(C(F)(F)F)cc4)nn23)cc1	0.7%	.	8	-3.9%	-0.5	.	.
Cc1ccc(OCc2nnc(SCC(=O)NC3CCCCC3)n2C)cc1	0.1%	26	-6	1.3%	-2.0	3.6	1%
COc1ccc(OC)c(S(=O)(=O)N2CCC(C(=O)N3CCN(c4ccc(F)cc4)CC3)CC2)c1	1.0%	5	31	0.1%	1.8	.	13%
CCOC(=O)C1=CCC(c2ccco2)N(S(=O)(=O)c2ccc(C)cc2)C1 (configuration not stated)	5.3%	.	14	-2.8%	0.8	.	.
CCCN(Cc1cccs1)C(=O)Nc1ccc(Br)c(C)c1	-0.8%	.	-14	0.8%	-0.3	.	.
O=C(CSc1nc(-c2ccccc2)cc(=O)[nH]1)NCc1ccc2c(c1)OCO2	0.8%	12	11	-2.4%	1.2	-1.5	16%
CCOC(=O)c1sc(NC(=O)c2nc(SC)ncc2Cl)c(C(=O)OCC)c1C	-0.1%	.	-2	-0.2%	-0.7	.	.
COc1ccc(C2NC(=O)NC(C)=C2C(=O)OCC2CCCCC2)cc1OC (configuration not stated)	5.7%	29	-9	0.1%	-0.6	6.1	-3%
COc1ccc(-n2c(=O)c3sc4ccccc4c3n(CC(=O)NCc3ccccc3)c2=O)cc1	1.8%	.	1	?	-0.7	.	.
CCOC(=O)C1CCN(S(=O)(=O)c2ccc3c(c2)CC(=O)N3)CC1	0.4%	1	13	16%	0.1	-6.7	-7%
Cc1ccc(C(=O)OCC(=O)c2ccc(CC(=O)N3CCOCC3)s2)c(C)c1	0.2%	-6	-6	1.1%	0.0	.	.
CC1CCN(S(=O)(=O)c2cn(CC(=O)Nc3ccc(C#N)cc3)cn2)CC1	1.9%	16	4	-0.9%	0.7	.	11%

Other structures.
SMILES	PINK1 expr mod	TRPV1 potentiator	TRPML1 blocker	ClpP mod	TRPML1 agonist	Menin MLL FP FL	Sfp PPTase inh
CC(=O)Nc1ccc2c(c1)-c1ccc(F)cc1C2	2.3%	.	-21	-0.9%	-0.2	.	.
COc1ccc(-c2c(C(=O)c3ccccc3)[nH]c(N)c2C(=O)NCc2ccccc2)cc1OC	-1.3%	.	.	0.6%	-0.9	.	.
COc1ccc(NC(=O)c2cc3ccccc3o2)c(OC)c1	-0.2%	.	-14	410%	1.0	.	.
CCC(C)(C)n1nnnc1C(C(C)C)N1CCN(C)CC1 (configuration not stated)	.	2	-8	0.1%	0.1	2.9	10%
Cc1ccc(S(=O)(=O)c2ccc(Cl)cc2)cc1S(=O)(=O)N1CCN(C)CC1	0.3%[38.3 µM]	24	-10	0.1%	1.2	2.7	11%
CCOc1ccc(NC(=O)CN(C)C(=O)CCCNC(=O)c2ccc(Cl)cc2)cc1OCC	1.3%	.	-19	-1.4%	-1.0	.	.
CCC(CC)C(=O)NCCc1ccc(F)cc1	0.5%	-5	-2	2.7%	-1.0	0.1	2%
COc1ccc2c(c1)CCCC21NC(=O)N(CC(=O)N2CC(C)OC(C)C2)C1=O (configuration not stated)	0.5%	.	-2	-2.9%	0.4	.	.
COc1ccccc1NC(=O)CSC1CC(=O)N(c2ccc3c(c2)OCO3)C1=O (configuration not stated)	0.0%[38.3 µM]	-7	-1	-1.1%	0.3	1.1	-9%
OCC1OC(n2ccc3c2ncn2ncnc32)C(O)C1O (configuration not stated)	0.2%	.	8	-4.1%	0.7	.	.
FC(F)(F)c1ccnc(Oc2ccc(C3=NCCS3)cc2)c1	4.1%	16	-8	3.4%	20	3.3	5%
Cc1ccc(COc2ccc(/C=N/O)cc2)cc1	-0.6%	3	-12	1.1%	0.2	0.2	0%
CN(C)CCn1c2c(c(SCC(=O)Nc3nccs3)nc1=O)CCCC2	2.5%	5	-7	1.3%	-0.7	.	.
CSc1nn(Cc2ccc(C)cc2)c(N)c1S(=O)(=O)c1ccccc1	1.3%	.	19	4.1%	-0.4	.	.
C[C@H](CO)N1C[C@H](C)[C@H](CN(C)S(=O)(=O)c2ccc(Oc3ccccc3)nc2)OCc2cnnn2CCCC1=O	2.1%	.	9	-0.5%	-0.5	.	.
Cc1ccc(NC(=O)CCC(=O)OCC(=O)c2ccc(Oc3ccc([N+](=O)[O-])cc3)cc2)cc1	10.0%	-2	-9	.	-0.7	3.8	?
CC(=O)Nc1sc(N/N=C\c2ccco2)nc1-c1cccs1	4.9%	-2	4	-3.3%	0.3	7.7	18µM*

Quoted from the listing:
CCC(CC)C(=O)NCCc1ccc(F)cc1 in TRPV1 potentiator is entered as -5
CSc1nn(Cc2ccc(C)cc2)c(N)c1S(=O)(=O)c1ccccc1 in PINK1 expr mod is entered as 1.3%
